# GIRK2 activ – activators of human GIRK2 potassium channels; AID 1259325; 63,000 compounds, 0.05% hits; HEK293-GIRK2 thallium flux, Thallos fluorescence; calls only for hits at 25 µM;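 active means among the strongest 0.2% of first-round signals and kept after retests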;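 further: first round at about 10 µM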
# Target sequence (P48051 whole entry, looked up): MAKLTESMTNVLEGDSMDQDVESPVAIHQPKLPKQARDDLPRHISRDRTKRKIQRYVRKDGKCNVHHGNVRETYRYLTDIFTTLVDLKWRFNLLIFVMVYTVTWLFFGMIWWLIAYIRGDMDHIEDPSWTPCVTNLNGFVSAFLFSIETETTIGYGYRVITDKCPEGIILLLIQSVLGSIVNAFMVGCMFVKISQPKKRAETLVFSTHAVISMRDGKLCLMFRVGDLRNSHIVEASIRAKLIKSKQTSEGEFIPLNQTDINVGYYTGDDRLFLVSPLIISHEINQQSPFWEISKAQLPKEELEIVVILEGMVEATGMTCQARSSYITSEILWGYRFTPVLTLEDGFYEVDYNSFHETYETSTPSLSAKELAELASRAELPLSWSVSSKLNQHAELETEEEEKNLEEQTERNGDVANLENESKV
# Calls only; i = inactive. A portion of the library (hit frequency here may not be typical).
# Start of the listing, in advance, 4 compounds:
Molecule,GIRK2 activ
Nc1nc2c([nH]c(=O)n2C[C@H]2O[C@@H](CO)[C@@H](O)C2O)c(=O)[nH]1 (some centres not stated),i
COCCn1c(=O)c2c(nc3n(-c4ccc(C(F)(F)F)cc4)c(C)c(C)n23)n(C)c1=O,i
O=C(c1cc(-c2cccs2)n(CC(=O)N2CCCc3ccccc32)n1)N1CCOCC1,i
O=C(Cn1nc2c(c1NC(=O)c1ccc(C(F)(F)F)cc1)CSC2)NCc1ccc(F)cc1,i

# This part in full (from the top)
Molecule,GIRK2 activ
Nc1nc2c([nH]c(=O)n2C[C@H]2O[C@@H](CO)[C@@H](O)C2O)c(=O)[nH]1 (some centres not stated),i
COCCn1c(=O)c2c(nc3n(-c4ccc(C(F)(F)F)cc4)c(C)c(C)n23)n(C)c1=O,i
O=C(c1cc(-c2cccs2)n(CC(=O)N2CCCc3ccccc32)n1)N1CCOCC1,i
O=C(Cn1nc2c(c1NC(=O)c1ccc(C(F)(F)F)cc1)CSC2)NCc1ccc(F)cc1,i
COc1ccc(C2CC3C4NN=C(SCC(=O)Nc5ccc(C(C)=O)cc5)N4C=CN3N2)cc1 (configuration not stated),i
Cc1ccc2nc(N(CCN3CCOCC3)C(=O)/C=C/c3cccs3)sc2c1,i
O=C(Nc1nc(CCC(=O)N2CCN(c3ccccc3)CC2)cs1)NC1CCCCC1,i
Brc1cccc(-c2noc(-c3cn[nH]c3-c3ccccc3)n2)c1,i
C=CCNC(=O)Nc1nnc(-c2ccn(C)n2)o1,i
COc1cccc2cc(C(=O)N3CC(c4nc(-c5cccc(C(F)(F)F)c5)no4)C3)oc12,i
COc1cccc2c1SCC(C(=O)O)C2 (configuration not stated),i
CN(C)c1ccc(C(=O)NCCCCCC(=O)NO)cc1,i
Cc1nnc(C2CCCN(C(=O)Cn3cnc4ccccc4c3=O)C2)s1 (configuration not stated),i
CC(=O)Cn1c(=O)c2c(nc3n(-c4ccccc4Cl)c(-c4ccccc4)cn23)n(C)c1=O,i
CCCCCN=C(N)N/N=C\c1c[nH]c2ccc(OC)cc12,i
COc1cccc(NC(=O)c2cc3c(=O)n4cc(C)ccc4nc3n2Cc2ccccc2)c1,i
Cc1cn2c(CCC(=O)NCc3ccco3)csc2n1,i
Cn1cccc1CN(Cc1cccs1)C(=O)CCCc1ccccc1,i
O=C(c1cc(Br)ccc1Cl)N1CC(c2nc(Cc3ccccc3)no2)C1,i
O=C1N(c2ccc(F)cc2)C2CS(=O)(=O)CC2N1c1ccc([N+](=O)[O-])cc1 (configuration not stated),i
COc1cccc(-c2c(C#N)c(N)nc3c2c(C)nn3-c2ccccc2)c1O,i
CCCCOc1ccc(-c2cc3c(=O)n(CC(=O)Nc4ccc(C)cc4)ccn3n2)cc1,i
COc1cc(OC)cc(C(=O)Nc2ccc3c(c2)CCCN3C(=O)C2CC2)c1,i
O=C(Nc1ccc(Oc2ccccc2)cc1)c1c2c(nn1C1CCS(=O)(=O)C1)CCC2 (configuration not stated),i
Cc1cccc(-n2c(C)c(C)n3c4c(=O)n(CC(N)=O)c(=O)n(C)c4nc23)c1,i
O=C(O)c1ccc(Nc2ncnc3c2oc2ccccc23)cc1,i
COc1ccc(-c2noc(-c3ccc(=O)n(CC(=O)N4CCc5ccccc54)n3)n2)cc1F,i
CC(C)CNc1oc(-c2ccc(S(=O)(=O)N3CCCCCC3)cc2)nc1C#N,i
CCOc1ccc(S(=O)(=O)c2cn(CC(=O)Nc3ccccc3)c3ccc(F)cc3c2=O)cc1,i
OCCN1CCN(CC(O)COCC2CC3CCC2C3)CC1 (configuration not stated),i
CCN(C(=O)c1cc2c(=O)n3ccccc3nc2n1CCCOC)c1ccccc1,i
COc1ccc(Cl)cc1NC(=O)NCC#CCN1CCCC1,i
COCCNC(=O)NCCc1ccoc1,i
Cc1cc(C)c(N2CCN(S(=O)(=O)N3CCCCC3)CC2)c(C)c1,i
O=C1CN(C(=O)c2cc(-c3ccc(F)cc3)c[nH]2)CCN1,i
COC(=O)N1CCC(CNC(=O)c2cc(-c3cc(OC)ccc3OC)nn2C)CC1,i
C#CCOCC1CCN(C(=O)C2CCC2)CC1,i
Cc1nn(C(C)(C)C)c(OC(=O)c2cccc3ccccc23)c1S(=O)(=O)c1ccccc1,i
CCCCNC(=O)CN1CCN(C(=O)Cn2c(=O)nc(-c3ccccc3)c3ccccc32)CC1,i
CC(C)NC(=O)CCCCn1c(=O)c2ccccc2n(Cc2ccc(F)cc2Cl)c1=O,i
CC1(C)CC[C@]2(C(=O)O[C@@H]3O[C@H](CO)[C@@H](O)[C@H](O)[C@H]3O)CC[C@]3(C)C(=CCC4[C@@]5(C)C[C@H](O)[C@H](O[C@@H]6OC[C@@H](O)[C@H](O)[C@H]6O)[C@@](C)(CO)C5CC[C@]43C)C2C1 (some centres not stated),i
Cc1nn(C)c(C)c1S(=O)(=O)NCc1nn(C)c2c1CCCC2,i
COc1ccc(-c2nnc(NC(=O)c3cccc4ccccc34)o2)c(OC)c1,i
O=C(/C=C/c1ccccc1)OCC1=CC[C@@H]2C(C(=O)O)=CO[C@@H](O[C@@H]3O[C@H](CO)[C@@H](O)[C@H](O)[C@H]3O)[C@H]12,i
COc1cc(-c2noc(Cn3c(=O)n(Cc4ccco4)c(=O)c4ccccc43)n2)cc(OC)c1OC,i
COC(=O)Nc1nc(Cc2nc(-c3ccccn3)no2)cs1,i
CCS(=O)(=O)N1CCCc2ccc(NS(=O)(=O)c3ccc(OC)cc3C)cc21,i
CCc1cccc(C)c1NC(=O)CSC1=Nc2ccccc2N=C(c2ccccn2)C1,i
CC(=O)N1CCC(c2nnc(-c3ccco3)s2)CC1,i
CCCN(Cc1ccsc1)C(=O)NCc1cccc2ccccc12,i
COc1ccc(-c2nc(Cn3nnc(C(=O)Nc4cccc(OC)c4)c3N)c(C)o2)cc1,i
COc1ccc(N2CC(C)Cn3c2nc2c3c(=O)n(Cc3cccc(C)c3)c(=O)n2C)c(OC)c1 (configuration not stated),i
CN(C)C(CNC(=O)c1ccccc1C(F)(F)F)c1cn(C)c2ccccc12 (configuration not stated),i
Cc1ccc(S(=O)(=O)NCCn2cncn2)cc1C,i
O=C(NCc1ccco1)c1nnn(-c2ccccc2)c1-c1ccccn1,i
CC(=O)Nc1nc2c(s1)CN(CC(=O)Nc1cccc(C(F)(F)F)c1)CC2,i

# Other records.
Molecule,GIRK2 activ
COC(=O)c1sc2cccc(F)c2c1S(=O)(=O)N1CCN(c2cccc(Cl)c2)CC1,i
CN1CCN(NC(=O)C(c2ccccc2)n2cccc2)CC1 (configuration not stated),i
O=C(NCc1ccc(C(=O)c2cccs2)s1)NCc1cccc2ccccc12,i
O=C(NCc1nc(-c2ccccc2)no1)c1coc(NC(=O)c2cnccn2)n1,i
COc1ccc(NC(=O)N2CCN(c3nc(N4CCOCC4)nc(-n4ccnc4)n3)CC2)cc1Cl,i
Cn1c(=O)c2c(ncn2CC(=O)N2CC(c3nc(-c4ccc[nH]c4=O)no3)C2)n(C)c1=O,i
CCC(=O)N1CCN(c2ccc(-c3noc(C(F)(F)F)n3)cn2)CC1,i
O=C(CSc1nnc(CCc2nc3ccccc3[nH]2)o1)Nc1cccc2nsnc12,i
CCOC(=O)c1c(NCC(C)O)c2cccc(C)c2[nH]c1=O (configuration not stated),i
O=C(CSc1nc2[nH]ncc2c(=O)n1-c1ccccc1)Nc1nc(-c2ccccc2)ns1,i
N#Cc1ccc(C(=O)NC2CCN(C(=O)c3cn[nH]c3-c3ccc(Cl)cc3)CC2)cc1,i
O=C(c1ccccc1Br)N1CCN(c2ncnc3c2nnn3-c2ccccc2)CC1,i
CC(=O)Nc1ccc(S(=O)(=O)Nc2ccc3nncn3n2)cc1,i
CCOC(=O)c1cnn2ccc(NC(=O)c3cc(-c4ccccc4)on3)cc12,i
Cc1ccccc1N1CCN(Cc2nc(-c3ccc(N4CCCC(C)C4)nc3)no2)CC1 (configuration not stated),i
O=C(CCSc1ccccc1)Nc1cc(N2CCN(c3ccccc3)CC2)ncn1,i

# Sorted by number of heavy atoms (smallest number first): 4 of the compounds above.
Molecule,GIRK2 activ
COC(=O)c1sc2cccc(F)c2c1S(=O)(=O)N1CCN(c2cccc(Cl)c2)CC1,i
O=C(c1cc(-c2cccs2)n(CC(=O)N2CCCc3ccccc32)n1)N1CCOCC1,i
CCCCOc1ccc(-c2cc3c(=O)n(CC(=O)Nc4ccc(C)cc4)ccn3n2)cc1,i
COc1ccc(C2CC3C4NN=C(SCC(=O)Nc5ccc(C(C)=O)cc5)N4C=CN3N2)cc1 (configuration not stated),i

# Further compounds:
Molecule,GIRK2 activ
COCCNC(=O)Nc1nc2c(s1)-c1cccc3cccc-2c13,i
N#Cc1cccc(C(=O)N2CCC(Cn3ccnc3-c3ccccc3)CC2)c1,i
CCOc1ccccc1-c1nc(Cn2nnc(C(=O)NCc3ccc(OC)cc3)c2N)c(C)o1,i
CC(=O)c1cccc(NC(=O)CSc2nnc(-c3ccncc3)o2)c1,i
CCOC(=O)c1ccccc1NC(=O)Cn1cccc(-c2nc(-c3ccc(Cl)cc3)no2)c1=O,i
O=c1[nH]c2cc3c(cc2c(=O)n1Cc1nc(-c2ccccc2)no1)OCO3,i
COc1ccccc1-c1cc(C(=O)Nc2ccc3sc(C)nc3c2)[nH]n1,i
CCCc1ccc(S(=O)(=O)NCCC(O)C2CC2)cc1 (configuration not stated),i
COc1cccc(C(=O)Oc2ccc3c(=O)c(-c4ccc(OC)c(OC)c4)coc3c2)c1,i
CCS(=O)(=O)NCCNc1ccc(C)nn1,i
Cc1ccc(-n2nnnc2CN2CCN(C(=O)c3ccc4ccccc4c3)CC2)cc1,i
COc1cccc2cc(C(=O)Nc3ccc(N(C)C(C)=O)cc3)oc12,i
Cn1c(SCC(=O)Nc2ccccc2)nc2c1c(=O)[nH]c(=O)n2C,i
Cc1cc(C)n(CCN2CCN(C(=O)CSc3nnnn3C)CC2)n1,i
Cc1ccc(/C=C/C(=O)Nc2ccc3oc(=O)ccc3c2)cc1,i
CCCCC(C)(O)C/C=C/[C@H]1[C@H](O)CC(=O)[C@H]1CCCCCCC(=O)OC (some centres not stated),i
CCC(C)n1c(C)c(C)n2c3c(=O)n(CC(=O)OC)c(=O)n(C)c3nc12 (configuration not stated),i
CCCCNC(=O)c1cccc(-n2ccnc2SCC(=O)Nc2cc(C)ccc2C)c1,i
CCOCC(=O)NNC(=O)c1ccc(=O)n(Cc2ccc(Cl)cc2)c1,i
Cc1cc(=O)[nH]c(-n2nc(-c3cccs3)cc2NC(=O)C2(c3ccc(Cl)cc3)CCCC2)n1,i
COc1ccc(C2(CNC(=O)c3cc(-c4ccccc4)n[nH]3)CCOCC2)cc1,i
O=[N+]([O-])c1ccc(-c2nn3c(-c4ccccc4)nnc3s2)cc1,i
CCN(CC)CCN1C(=O)C(=O)C(=C(O)c2ccncc2)C1c1cccc(OC)c1OC (configuration not stated),i
COc1ccc(-c2nc(CCNS(=O)(=O)c3ccc(Br)cc3)cs2)cc1OC,i
CCC(C(=O)N1CCN(Cc2nc(-c3ccc(F)cc3)cs2)CC1)c1ccccc1 (configuration not stated),i
CCOc1ccc(-c2noc(CSc3nc4ccsc4c(=O)n3CCOC)n2)cc1,i
CCCn1c(-c2cc(OC)c(OC)c(OC)c2)nc2c(c(=O)c3ccccc3n2C)c1=O,i
COc1ccc(-n2c(=O)c3ccccc3n(CC(=O)NCCc3ccccc3)c2=O)cc1,i
CCCNC(=O)NNC(=O)c1cccn(Cc2cccc(Cl)c2)c1=O,i
O=C(CCn1c(=O)[nH]c2ccccc2c1=O)NC1CCCCC1,i
Cc1ccc(-c2noc(-c3ccc(=O)n(CC(=O)NCc4ccco4)c3)n2)cc1,i
O=C(Cn1c(=O)oc2ccccc21)N1CC(c2nc(-c3cnccn3)no2)C1,i
CCCC(=O)Nc1cnc(N2CCCC2)nc1,i
CC(C)(C)NC(=O)N1CCC(CNS(=O)(=O)Cc2ccc(C(F)(F)F)cc2)CC1,i
CC(C)c1nccn1CC1CCN(C(=O)c2c(F)cccc2F)CC1,i
Cn1c(-c2ccccn2)nn(CCNC(=O)CSc2ccc(F)cc2)c1=O,i
CCn1c(SCCC(=O)O)nc2c1c(=O)[nH]c(=O)n2C,i
COc1cccc(CNC(=O)CCc2nc3sc4c(c3c(=O)[nH]2)CCCCC4)c1,i
COc1ccc(CCNC(=O)C2CCCN(c3ccc(-c4ccc(Cl)cc4)nn3)C2)cc1OC (configuration not stated),i
CCOC(=O)c1ccccc1NC(=O)Cn1cnc2c(-c3ccc(F)cc3)csc2c1=O,i
CS(=O)(=O)Oc1ccc2c(=O)c(-c3ccc(Cl)cc3)c(C(F)(F)F)oc2c1,i
Cc1cc(CCNC(=O)CC(c2ccccc2)c2ccccc2)on1,i
O=C(NCC1(c2ccc(F)cc2)CC1)c1cc(-c2ccco2)on1,i
CN(C)c1cccc(C(=O)NCC2CCN(C(=O)c3cccnc3)CC2)c1,i
O=C1CCc2cc(S(=O)(=O)N3CCc4ccccc4C3)cc3c2N1CCC3,i
CCOCCOC(=O)c1cc2cc([N+](=O)[O-])ccc2oc1=O,i
O=C(NCCCOc1cccc2cccnc12)c1ccc[nH]c1=O,i
O=C(CN1CCOCC1)Nc1oc2ccc(Cl)cc2c(=O)c1-c1ccc(Cl)cc1,i
Cc1cccc(C(=O)N2CCN(c3ccc(-n4cccc4)nn3)CC2)c1,i
CC(Cc1cccs1)NC(=O)c1cc(-c2ccccc2)on1 (configuration not stated),i
O=C(NCc1ccccc1C(F)(F)F)C1CCN(c2ncnc3c2oc2ccccc23)CC1,i
CC(C)CC(NS(=O)(=O)c1ccc(C(C)(C)C)cc1)C(=O)O (configuration not stated),i
Cc1nc(C)c(C(=O)Nc2cc(N3CCC(C)CC3)ncn2)s1,i
O=C(/C=C/c1cccs1)NCC1(c2ccc(F)cc2)CCOCC1,i

# Compound activity: PubChem, Vanderbilt University
